# Screening data (PubChem BioAssay)
# Ba CapD inh – inhibitors of Bacillus anthracis CapD enzyme; z-score (test concentration not listed); purified CapD enzyme, fluorescence intensity read-out; stronger effect = lower value; some hits fall short of the stated cut; hit rate 0.23% among 140,000;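 active = z-score under -4 in either of two replicates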;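 note: stock transfer was 100 nL into about 40 µL; score is relative to mean and spread of the plate; one replicate is shown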
# AID504770 – E. coli YBA685 growth inhibition, screen for V. cholerae RctB inhibitors | E. coli YBA685 rctB-dependent plasmid, OD600 growth, 3 h; stronger effect = lower value | z-score (no concentration beside the values) | hit rate 0.27% among 130,000 | AID 504770;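 active = z-score under -2 on both plates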;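 note: wells of about 30 µL received 100 nL stock; score is relative to mean and SD of the test wells; the first replicate is given; strong numbers were not always called active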
# Starred values were filed as active, the others as inactive; . = not tested or not shown.
smiles | AID504770 | Ba CapD inh
COc1ccc(C(C(=O)NC2CCCC2)N(C(=O)c2ccco2)c2ccc(NC(C)=O)cc2)cc1OC (stereo not drawn) | -0.25 | .
COc1ccc(/C=N/NC(=O)Cc2c[nH]c3ccccc23)c(O)c1 | . | -0.46
O=C(CN1CCCC1c1cccs1)NC(=O)Nc1ccccc1 (stereo not drawn) | -0.5 | .
CCC(=O)N1CCc2cc(Br)cc(S(=O)(=O)N3CCC(C(=O)NCc4ccc(C)o4)CC3)c21 | 0.2 | 0.34
O=C(CSc1nc2cc(Cl)ccc2o1)NCC(F)(F)F | 1.2 | .
COc1ccc(-n2c(SC(C)C#N)nc3ccccc32)cc1 (stereo not drawn) | -0.5 | .
O=C(CSc1cc(Cl)nc(Cl)c1)NCc1cccc(C(F)(F)F)c1 | . | 0.33
CCN(Cc1ccncc1)C(=O)NCc1csc2ccccc12 | . | -0.7
O=S(=O)(NCCN1CCCC1)c1cccc2nsnc12 | . | -0.53
O=C(NCCN1CCOCC1)c1cc2cccc3c2n(c1=O)CC3 | . | 16
CCCCCCc1nc2ccccc2c(=O)n1NC(=O)c1c(O)c2cccc3c2n(c1=O)CC3 | . | 0.13
O=C(N/N=C/c1ccc2c(c1)OCO2)c1ccccc1 | -0.75 | .
O=S(=O)(NCC1CCCO1)c1cccc(C(F)(F)F)c1 (stereo not drawn) | -0.8 | .
O=S(=O)(c1ccc2c(c1)OCCCO2)N1CCN(Cc2ncc(-c3ccccc3)o2)CC1 | 0.25 | .
Cc1cc(C)cc(NC(=O)NN2C(C)CCCC2C)c1 (stereo not drawn) | 0.05 | -0.11
c1ccc2c(c1)NC(c1ccc3nsnc3c1)c1cccn1-2 (stereo not drawn) | 0 | 0.75
CCN(CC)c1nc2ccccc2nc1C(C#N)C(=O)NCCc1ccccc1 (stereo not drawn) | -0.55 | .
CCOC(=O)c1c(C)oc2nc(C)nc(NCc3ccc(CN4CCCCC4CC)o3)c12 (stereo not drawn) | 0.15 | 0.24
COc1ccccc1CNC(=O)C(C)Oc1ccccc1 (stereo not drawn) | -0.05 | 0.05
COC(=O)CCC(=O)c1oc2ccccc2c1NC(=O)CCCN1C(=O)c2ccccc2C1=O | 0.4 | -0.96
CC1CCCC(C)N1C(=O)/C(C#N)=C/c1ccc2c(c1)OCO2 (stereo not drawn) | -1.1 | .
O=C(O)c1ccc2c(=O)nc3n(c2c1)Cc1ccccc1-3 | -0.1 | 9.6
COc1cc(C(F)(F)F)nc2ccc(C)c(NC(=O)Nc3ccc(OC(F)(F)F)cc3)c12 | 1.6 | 45
N=C(N)SCc1ccc(C(F)(F)F)cc1 | 0.35 | 2.7
CCCCN(C(=O)CN1CCc2ccccc21)c1c(N)n(Cc2ccccc2)c(=O)[nH]c1=O | -0.75 | .
CC1Cc2ccccc2N1C(=O)/C=C/c1cn[nH]c1-c1cc2ccccc2o1 (stereo not drawn) | -0.45 | .
CCC(=O)Nc1ccsc1C(=O)OC | 1.1 | 1.1
O=C(N/N=C/c1c[nH]c2cc(OCc3ccccc3)ccc12)c1cc2ccccc2cc1O | . | 0.24
OCCN1CCSC1=Nc1cccc2ccccc12 | 0.25 | .
CSc1nc2ccccc2n1CCO | -3.3 | 1.4
CCOC(=O)CN1C(c2ccc(Cl)cc2)=Nc2ccc(Br)cc2C1c1ccccc1 (stereo not drawn) | . | -0.7
Cc1ccc(CCP(=O)(O)CCC(=O)O)cn1 | 0.35 | 79
c1ccc(Cn2ccnc2)cc1 | 0.65 | 0.3
O=S1(=O)N=C2CCCCCN2C(CSc2nnc(CN3CCCCC3)n2Cc2ccccc2)N1 (stereo not drawn) | 1.9 | .
COc1cc(C2c3cc4c(c(O)c3CC3COC(=O)C32)OCO4)cc(OC)c1O (stereo not drawn) | -0.9 | 0.78
O=c1oc(-c2cccc(Cl)c2)nc2scc(-c3ccc(Br)cc3)c12 | . | -0.01
CC(=O)c1ccc(NC(=O)c2cc(-c3ccccc3C)nc3ccccc23)cc1 | . | -0.82
CC1=NN(CCc2nc(-c3ccc(Cl)cc3)cs2)C(=O)C1 | 0.85 | .
O=C(OCc1ccc(C(F)(F)F)cc1F)N1CCN(Cc2ccc(Oc3ccccc3)cc2)CC1 | . | 1.4
Cc1cc2ccccc2nc1-c1ccc(F)cc1 | -0.55 | -0.34
CCN1C(=O)C(=Cc2ccc(O)c(I)c2)C(=O)N(CC)C1=S | 0.15 | -0.17
Nc1ncnc2c1ncn2C1OC(C(=O)O)C(O)C1O (stereo not drawn) | 0.35 | .
O=C(Nc1ccc(F)cc1)c1cccnc1Oc1ccccc1 | . | -0.075
O=C(CSc1nc2ccccc2n1S(=O)(=O)c1cccs1)NCc1cccs1 | . | -0.2
O=C(N(c1ccccc1)c1ccccc1)n1cncn1 | -0.35 | 0.48
COc1ccc(C2/C(=C(\O)c3ccc(F)cc3)C(=O)C(=O)N2CCCN2CCOCC2)cc1OC (stereo not drawn) | . | -0.18
Cc1ccc(OCC(=O)O)cc1 | -0.95 | -0.31
CCOC(=O)c1c(NC(=O)c2cnn3c2NC(c2ccc(C)cc2)CC3C(F)(F)F)sc2c1CCCC2 (stereo not drawn) | . | 3.3
CN1Cc2c(ccc3c2OCO3)[C@@H]2[C@H]1c1cc3c(cc1C[C@@H]2O)OCO3 | . | 80
COc1cc(N(C)C)ccc1CN1CCC(NS(=O)(=O)c2cc(C)ccc2OC)C1 (stereo not drawn) | . | 0.42
O=C1c2ccccc2-c2nc3nonc3nc21 | 2.2 | -0.71
Cn1cnnc1SCC(=O)N(c1ccccc1)c1ccccc1 | -0.75 | 0.32
NCCCc1cn[nH]c1 | -0.2 | .
Cc1c(NC(=O)NCc2ccccc2)c(=O)n(-c2ccccc2)n1C | -0.05 | 1.7
CCc1nc2ccc(C(=O)NCc3cn[nH]c3C)cc2nc1CC | -1.2 | -1.8
CCn1c(=N)c(C(=O)NCc2ccccc2)cc2c(=O)n3ccccc3nc21 | -1.4 | 65
COc1ccc(-c2nc(=O)c3ccccc3o2)cc1 | -0.25 | 0.055
CN(C)S(=O)(=O)c1ccc(=O)n(Cc2ccc(-n3ccnc3)cc2)c1 | 0.05 | .
O=C(c1ccc(-c2nc3ccccc3s2)s1)N1CCOCC1 | -0.25 | 3.4
COC(OC)c1ccc(C#N)c(SCc2ccccc2)n1 | 1.9 | 1

# Entries of single compounds from above:
# Cc1ccc(CCP(=O)(O)CCC(=O)O)cn1 in the list: AID504770: 0.35; Ba CapD inh: 79
# O=S1(=O)N=C2CCCCCN2C(CSc2nnc(CN3CCCCC3)n2Cc2ccccc2)N1 (stereo not drawn) in the list: AID504770: 1.9; Ba CapD inh: .

# Next part
smiles | AID504770 | Ba CapD inh
O=S(=O)(c1ccc(F)cc1)N1CN2CCN(C2)C1 | 0.15 | -0.44
O=C1CCN(C(=O)c2cccc(CN3C(=O)c4ccccc4C3=O)c2)CC1 | 0.4 | .
COc1ccc([C@H]2[C@@H](C(=O)O)c3ccccc3C(=O)N2Cc2ccc3c(c2)OCO3)cc1 | 0 | .
O=C1C(=Cc2c[nH]c3ccccc23)C(=O)c2ccccc21 | 4.5 | -0.94
CCOC(=O)c1c(N)sc2c1-c1ccccc1C2 | 0.4 | -0.36
CC1=CC(C)(C)NC(=S)N1c1ccc(Cl)cc1 | . | -0.43
O=C(O)c1ccc(CSc2nnc(-c3ccco3)o2)cc1 | -1.1 | 0.62
COc1cc(/C=N/c2c(-c3ccc(O)c(OC)c3)nc3ccccn23)ccc1O | -0.55 | 1.3
CC(C)n1nnnc1SCC(=O)NC(=O)NC1CCS(=O)(=O)C1 (stereo not drawn) | 1.9 | .
O=C(NC(=O)c1cccc(=O)o1)Oc1ccccc1 | 0.15 | -1.1
O=C1CCCC(O)=C1N=Nc1ccc(Cl)c(Cl)c1 | 0.4 | .
Clc1ccc(COn2c(-c3ccccc3)nc3ncccc32)c(Cl)c1 | . | 5.3
CCOC(=O)c1cc2ccccc2oc1=O | . | 22
CC(C)N1C(=O)N(c2ccccc2)C(=O)C1CC(=O)Nc1ccccc1 (stereo not drawn) | 0.45 | 0.005
CC1CCCCC1NC(=O)/C(C#N)=C/c1ccc2c(c1)OCCO2 (stereo not drawn) | -0.35 | .
CC1(C)SC(=S)N(/N=C/c2ccco2)C1N(O)C(=O)NC1CCCCC1 (stereo not drawn) | . | -0.9
Cc1cccc(SCC(=O)Nc2ccc3c(c2)OCCO3)c1 | -1 | -0.47
CCC(=O)OCc1cc(F)cc2c1OC(c1ccccc1)OC2 (stereo not drawn) | 1.4 | .
O=C(c1cc(N2CCOCC2)nc(N2CCOCC2)n1)N1CCOCC1 | . | -0.46
CC(=O)n1c2c(c3ccccc31)OC(N)=C(C#N)C2c1ccsc1 (stereo not drawn) | . | 1.6
CC1CCN(Cc2c(F)cccc2F)CC1 | -1.1 | -0.04
COc1ccc(CC(=O)N(C)c2ccccc2)cc1 | -0.2 | -0.12
COc1ccc2c(c1OC)C(=O)O[C@@H]2[C@H]1c2c(cc3c(c2OC)OCO3)CCN1C | . | 3.9
O=c1oc(-c2ccco2)ns1 | -2 | -8.5*
COc1cc(C(=O)O)cc(Br)c1OC | -0.7 | 0.62
CCCN1CCC(N(C(=O)c2ccc(NC(=O)c3ccc(Cl)nc3)cc2)C2CC2)CC1 | . | -0.26
COC(=O)c1sc2ccccc2c1S(=O)(=O)NCc1ccco1 | 0.4 | -0.11
O=c1c(Oc2ccccc2)c(C(F)(F)F)oc2cc(O)ccc12 | 0.95 | -0.34
CN(CCOC(=O)NNC(=O)c1ccc(-c2ccccc2)cc1)c1ccccc1 | . | -0.42
NC(=O)CS(=O)(=O)c1nc2ccccc2n1Cc1ccccn1 | 0.2 | .
CCOC(=O)c1nc(-c2cccc(-n3cccc3)c2)no1 | -0.45 | 0.14
O=C1CCCN1C(=O)CN1CCCCC1 | -0.6 | .
N/C(CS(=O)(=O)Cc1ccc(F)cc1)=N\O | -0.25 | 9.8
COc1ccc(N=C2SCC(=O)N2CCc2ccc(OC)c(OC)c2)cc1 | -0.4 | -0.47
CCOc1cccc2c(C)nc(Nc3nc4c(c(=O)[nH]3)CCCC4)nc12 | 1.5 | -0.085
COC1(NC(=O)c2ccc(C)cc2)C(C)=CC(=O)C=C1C | 0.1 | .
CCN1CCN(C(=O)CC2(C(F)(F)F)OCCO2)CC1 | 0.25 | 0.32
Cc1ccccc1Nc1nc(N)nc(COC(=O)C2CCN(C(=O)c3ccc(F)cc3)CC2)n1 | -0.45 | .
O=c1c2cn[nH]c2[nH]c(=S)n1-c1cccc(C(F)(F)F)c1 | 2 | -0.69
Clc1cccc(-c2csc(Nc3cccnc3)n2)c1 | . | -0.04
Oc1ccc(-c2cccc(-c3ccc(O)cc3)c2)cc1 | 0.15 | .
Cc1cccc(C2Sc3ccccc3N=C3c4ccccc4C(=O)C32)c1 (stereo not drawn) | 0.65 | -1.1
O=C1C[C@H](N2C(=O)c3ccccc3S2(=O)=O)C2CO[C@@H]1O2 | -2 | 0.46
CCC1CCCCN1CCCNC(=O)c1ccc(Cn2c(=S)[nH]c3cc(C(=O)OC)ccc3c2=O)cc1 (stereo not drawn) | . | -0.4
COC(CN(C)C(=O)c1ccc(CS(=O)(=O)c2ccccc2C)o1)OC | 2.5 | -0.89
CN1CCN(S(=O)(=O)c2ccc(NC(=O)COc3ccccc3Cl)cc2)CC1 | 1.5 | .
CCOC(=O)c1c(C)noc1-c1ccc(Br)o1 | 0.05 | 18
CC(=O)N1CCC(n2nc(-c3ccccc3)oc2=O)CC1 | 0.65 | -0.98
CCOc1ccc(-n2c(/C=C/c3cccc(OC)c3OC)nc3ccccc3c2=O)cc1 | . | -0.45
CC(C)CNCC(=O)Nc1ccc(S(N)(=O)=O)cc1 | 0 | .
COc1cc(C2C(C#N)=C(N)Oc3n[nH]c(C(C)(C)C)c32)cc(OC)c1OC(C)=O (stereo not drawn) | . | -0.015
O=C(COC(=O)C1c2ccccc2Oc2ccccc21)NCc1ccco1 | -0.8 | .
Cc1cccc(/C=C2\Sc3ccc(C(=O)NCCC(C)C)cc3N(C)C2=O)c1 | -0.2 | -0.41
NS(=O)(=O)c1ccc(CCn2c(-c3ccccc3)nc(=S)c3c2CCCC3)cc1 | -0.55 | -0.09
COc1ccc(N(Cc2cccs2)C(=O)CSc2n[nH]c(-c3cccs3)n2)cc1 | -0.3 | .
Cc1csc2c(SCC(O)C(F)(F)F)ncnc12 (stereo not drawn) | 2 | -0.4
CCCc1nnc(SCC(=O)N2c3ccccc3Sc3ccccc32)o1 | -1.2 | .
Cc1cc(S(=O)(=O)Nc2cccnc2)c(C)s1 | 2.2 | -0.035
Cc1cccc(Oc2ccc(N)cn2)c1C | . | 19
CC(C)(C)c1[nH]nc2c1C(c1ccccc1OC(=O)N1CCOCC1)C(C#N)=C(N)O2 (stereo not drawn) | . | 0.93

# The listing continues:
smiles | AID504770 | Ba CapD inh
Cc1cc(Cl)ccc1OCC(=O)OCC(=O)N1CCC(C(N)=O)CC1 | 0 | .
Cc1c(NC(=O)C2CCCC2)c(=O)n(-c2ccccc2)n1C | -0.05 | 0.84
O=C(CN1C(=O)/C(=C2\SC(N3CCOCC3)=NC2=O)c2ccccc21)Nc1ccc(F)cc1 | . | -0.005
COc1ccc(-c2nnc(SCc3cc(=O)n4cc(Br)ccc4n3)n2N)cc1OC | 2 | .

# 7 compounds from above, ordered by SMILES length, rising:
smiles | AID504770 | Ba CapD inh
Cc1csc2c(SCC(O)C(F)(F)F)ncnc12 (stereo not drawn) | 2 | -0.4
Cc1c(NC(=O)C2CCCC2)c(=O)n(-c2ccccc2)n1C | -0.05 | 0.84
Cc1cc(Cl)ccc1OCC(=O)OCC(=O)N1CCC(C(N)=O)CC1 | 0 | .
COc1ccc(-c2nnc(SCc3cc(=O)n4cc(Br)ccc4n3)n2N)cc1OC | 2 | .
COc1ccc(N(Cc2cccs2)C(=O)CSc2n[nH]c(-c3cccs3)n2)cc1 | -0.3 | .
CC(C)(C)c1[nH]nc2c1C(c1ccccc1OC(=O)N1CCOCC1)C(C#N)=C(N)O2 (stereo not drawn) | . | 0.93
O=C(CN1C(=O)/C(=C2\SC(N3CCOCC3)=NC2=O)c2ccccc21)Nc1ccc(F)cc1 | . | -0.005

# Not a hit list; any-hit rate near 0.41%.
